Screens: PubChem BioAssay, National Center for Advancing Translational Sciences (NCATS)
HTT prom inh: inhibits huntingtin promoter activity; HEK293 HTT promoter firefly luciferase reporter (activity 0% = vehicle and -100% = no light), 24 h; Potency, µM (titrated, usually from 57.5 µM), for inactives: top-dose activity change, negative = inhibition, actives largely listed as inhibitors; hit rate 0.93% among 48,000; active = well fitted inhibition curve with a large enough effect; inconclusive = small, poorly fitted or top-dose-only effect; inactive = no such curve, though single readings can be large or run the other way; also: nearly all actives have a fitted effect of over 50% in size
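Firefly luciferase signal from promoter-reporter HEK293 cells was scaled between vehicle (0%) and zero RLU (-100%). Compounds were tested at final concentrations of up to 57.5 uM over 24 h at 37 degrees C. PTC124 at 50 uM final served as control inhibitor.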
PMP22 txn: modulates PMP22 transcription in S16 Schwann cells; S16 Pmp22-F2sN Schwann cells (luciferase reporters placed in the Pmp22 gene), FLuc/NLuc coincidence luminescence, 24 h; Potency, µM (top dose mostly 57.5 µM), without a hit: top-dose activity change, negative = inhibition, actives largely listed as inhibitors; hit rate 2% among 43,000; AID 1508649; active = clear falling dose curves in both reporters; inconclusive = both reporters move, but less clearly or upward; inactive = either reporter flat; the % is the NLuc reporter signal; also: % is scaled to controls: 0 for no effect and ±100 for the full control effect; some results filed as inactive show a strong effect at the top dose
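Rat S16 Pmp22-F2sN cells, 500-1,000/well in phenol red-free DMEM + 10% FBS, compound-treated 24 h (37C, 5% CO2). Luminescence: FLuc read, Stop&Glo added, NLuc read.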
* = called active by the depositor; ? = inconclusive; . = no result given; [ ] = remark or other dose. Potency is read from the fitted curve at half-maximal effect.

SMILES | HTT prom inh | PMP22 txn
O=C(NCCCc1nc2ccccc2n1Cc1cccc(Cl)c1)C1CCCCC1 | -23% | -11%
CCOc1ccc(NC(=O)c2cc3cc(C)ccc3n2C)cc1 | -7% | 0%
CCN1C(=O)c2ccccc2S(=O)(=O)c2ccc(C(=O)NCc3ccccc3Cl)cc21 | -15% | -16%
COCCCNc1nc2c(c(=O)n(Cc3ccc(F)cc3)c(=O)n2C)n1C | -9% | -8%
Cc1cccc2cc(CN(C(=O)c3cccc(Cl)c3)c3ccccc3)c(=O)[nH]c12 | -14% | 2%
Cc1cc(Nc2ncc3c(n2)N(C)C(=O)N(c2cc(NC(=O)c4cccc(C(F)(F)F)c4)ccc2C)C3)n(C)n1 | ? | .
O=C(CCn1c(=O)c2cccn2c2ccc(F)cc21)NCCc1ccccc1 | -7% | -47%
COc1cc(NC(=O)CCn2cnc3ccccc3c2=O)cc(OC)c1 | -12% | -19%
COc1ccc2c(Oc3ccc(NC(=O)c4c(C)n(CC(C)(C)O)n(-c5ccccc5)c4=O)nc3)ccnc2c1 | -5% | .
Cc1ccc2c(=O)c(C(=O)c3ccccc3)cn(CC(=O)Nc3ccccc3C)c2n1 | 8% | 7%
O=C(c1cc(-c2ccc(Cl)cc2)on1)N(Cc1ccc(F)cc1)Cc1ccco1 | -38% | -14%
Cc1ccc(C)c(N2CCN(C(=O)C3CCN(C(=O)c4cc5sccc5n4C)CC3)CC2)c1 | ? | ?
COc1ccc(-c2noc(-c3ccc(NC(C)c4ccccc4)c([N+](=O)[O-])c3)n2)cc1OC (stereo not drawn) | -10% | -1%
Cn1c2ccccc2c2cnn(CC(=O)N3CCN(c4cccc(C(F)(F)F)c4)CC3)c(=O)c21 | 4% | 3%
Cc1sc2ncn(CC(=O)N3CCN(c4ccccc4)CC3)c(=O)c2c1S(=O)(=O)N1CCN(c2ncccn2)CC1 | -13% | -1%
O=C(NCc1cccs1)c1ccc(CSc2nc3ccncc3n2Cc2cccc(F)c2)cc1 | ? | -14%
Cc1ccc(S(=O)(=O)N(CC(=O)Nc2ccc3c(c2)OCO3)c2ccc(C)c(Cl)c2)cc1 | ? | -14%
COc1ccccc1C1C(C(N)=O)=C(C)Nc2nc(SCc3ccccc3F)nn21 (stereo not drawn) | -5% | ?
O=C(COC(=O)c1cc(-c2cccs2)nc2ccccc12)c1ccccc1 | 28% | -20%
O=C(CS(=O)(=O)c1cccc2nsnc12)Nc1ccc(F)cc1 | -4% | -9%
COc1ccc(Nc2oc(-c3ccc(COc4ccccc4C)o3)nc2C#N)cc1 | ? | -50%
CCc1ccc(CNC(=O)C2Cc3cc(S(=O)(=O)N4CCCCCC4)ccc3N2C(C)=O)cc1 (stereo not drawn) | -11% | ?
CCC(=O)N1c2ccc(S(=O)(=O)CCC(=O)N3CCN(c4ccc(F)cc4)CC3)cc2CC1C (stereo not drawn) | -32% | ?
CCOc1ccc(NC(=O)c2sc3nc4n(c(=O)c3c2C)CCCC4)cc1 | 3% | -138%
Cc1cc(C)n(-c2nc(C)c(C)c(=O)n2CC(=O)Nc2ccc([N+](=O)[O-])cc2)n1 | -21% | -8%
COc1cccc(N2CCN(C(=O)c3cnc4c(-c5ccccc5)c(C)nn4c3C)CC2)c1 | -10% | 2%
Cc1nc2c(-c3ccccc3)c(C)nn2c(C)c1CCC(=O)NC(C)c1ccccc1 (stereo not drawn) | -29% | -4%
CCN(CC)CCCNC(=O)c1ccc(Cn2c(SCc3ccccc3)nc3cccnc32)cc1 | 24% | -17%
CCOC(=O)c1c(NC(=O)c2cc(-c3ccc(Br)cc3)on2)sc(C)c1C | -2% | -7%
CCc1ccccc1Nc1sc(C(=O)c2ccccc2)c(N)c1S(=O)(=O)c1ccccc1 | ? | -10%
O=C(CC1(O)C(=O)N(CCc2ccccc2)c2ccc(Br)cc21)c1ccccc1O (stereo not drawn) | ? | ?
O=C(CN1C(=O)C2CCCCN2c2ccc(C(=O)N3CCCC3)cc21)NCc1ccc(F)cc1 (stereo not drawn) | -12% | -13%
Cc1ccc(-c2cc(C(F)(F)F)c(C#N)c(SCC(=O)Nc3ccccc3)n2)cc1 | -12% | 4%
O=C(CSc1nccn1Cc1ccc(Cl)cc1)NC1CCCC1 | ? | -9%
Clc1ccccc1Nc1ncnc2c1nc1n2CCCCC1 | -19% | ?
CCOc1cc(C2c3c(oc4ccccc4c3=O)C(=O)N2Cc2ccccc2Cl)ccc1O (stereo not drawn) | -11% | ?
Cc1ccc(NC(=O)CSc2nc(=O)n(Cc3ccccn3)c3c2CCC3)cc1F | -6% | -7%
O=C(c1cccs1)c1cn(CCOc2ccc(Cl)cc2)c2ccccc12 | -34% | ?
COc1ccc(N2CCN(C(=O)c3cc4c(=O)n(Cc5cccnc5)ccc4nc3C)CC2)cc1 | -16% | -7%
CC(C)(C)C(=O)OCc1cc(=O)n2nc(C3CCCCC3)sc2n1 | 10% | -92%
COC(=O)C(CCSC)NC(=O)C1CCN(c2ncnc3c2nc2n3CCCCC2)CC1 (stereo not drawn) | 11% | -13%
Cc1ccc(-c2cc(-c3ccc4c(c3)NC(=O)CO4)nc3c2COc2ccccc2-3)cc1 | -3% | -26%
CCCCN(CC)CCCn1cnc2c([nH]c3ccc(Cl)cc32)c1=O | 1% | ?
CCOc1cccc(NC(=O)c2sc3nc(-c4ccc(F)cc4)ccc3c2N)c1 | 0% | -12%
O=C(NCCc1ccc(F)cc1)C(=O)NCC(c1ccco1)S(=O)(=O)c1cccs1 (stereo not drawn) | ? | 4%
Cc1cccc(C)c1NC(=O)Cn1c(=O)n(CCC(=O)NCc2ccc3c(c2)OCO3)c(=O)c2sccc21 | -13% | -3%
CCCOc1cccc(C(=O)N(Cc2sccc2C)C2CCS(=O)(=O)C2)c1 (stereo not drawn) | -20% | -5%
CC1CCCCN1S(=O)(=O)c1ccc2c(c1)oc(=O)n2CC(=O)Nc1ccc(Cl)cc1 (stereo not drawn) | ? | -30%
CCCCNC(=O)CSc1nc2ccccc2nc1Cc1ccc(Cl)cc1 | 4% | ?
CCS(=O)(=O)CCn1c([N+](=O)[O-])cnc1C | 1% | .
Cc1csc2nc(COC(=O)c3ccccc3NC(=O)COc3ccccc3F)cc(=O)n12 | ? | -18%
Cc1cc(C)cc(NC(=O)C2CCN(S(=O)(=O)c3ccc4c(c3)oc(=O)n4C)CC2)c1 | -12% | 9%
O=C(c1ccccc1)c1cn(Cc2ccc(F)cc2)c2ccccc2c1=O | ? | ?
O=C1Nc2cc(Cl)ccc2Oc2cc(Oc3ccccc3)ccc21 | ? | -4%
COc1ccc(NC(=O)c2c(NCc3ccc(C)o3)sc3c2CCCCC3)c(OC)c1 | -21% | 14µM*
COc1cc2[nH]c(=O)n(CCCC(=O)N(C)Cc3ccccc3)c(=O)c2cc1OC | -15% | 2%
Cc1ccc(C)c(NC(=O)N(C)CCc2c(C)nn(C)c2C)c1 | 5% | 8%
COc1ccc(-c2noc(-c3ccc(NCC4CCCO4)c([N+](=O)[O-])c3)n2)cc1 (stereo not drawn) | -12% | -2%
O=C(CSc1nccn1-c1ccc(Cl)cc1)Nc1cccc2ccccc12 | ? | ?
Cc1c(NC(=O)c2cccs2)cccc1-c1nc2cc(Cl)ccc2o1 | -15% | 3%

(next part)
SMILES | HTT prom inh | PMP22 txn
COc1ccccc1OC(C)C(=O)Nc1cccc(-c2nc3ccccc3o2)c1 (stereo not drawn) | 3% | -11%
CCCCOc1ccc(CNC(=O)c2ccc(-c3nc(CN4CCc5ccccc54)c(C)o3)cc2)cc1 | -24% | ?
COc1ccccc1CNC(=O)c1c(O)nc2cc(C)ccn2c1=O | -9% | -7%
CC1=C(CC(=O)O)c2cc(F)ccc2/C1=C\c1ccc(S(C)(=O)=O)cc1 | -1% | .
NC(=O)c1ccccc1O | -2% | .
CCCOc1ccc(C(=O)Nc2ccc3nn(-c4ccc(OC)c(Cl)c4)nc3c2)cc1 | 12% | 2%
CCc1ccccc1N(C)C(=O)c1cc2c(=O)oc3ccccc3c2s1 | -7% | -17%
Cc1ccc(C)c(NC(=O)CN2C(=O)C3(SCC(=O)N3c3ccc(C)c(C)c3)c3ccccc32)c1 (stereo not drawn) | ? | 4%
COc1cc(OC)c(NC(=O)N2CCSc3ccccc32)cc1Cl | -27% | ?
CCCN(CCC)CCCNC(=O)c1cc2c(=O)[nH]c3ccccc3c2n1C | -6% | ?
CCOC(=O)c1c(NC(=O)c2cc(=O)c3c(C)cc(C)cc3o2)sc(C)c1C | 14% | 1%
CCC(=O)NNc1ncnc2c1cnn2-c1ccc(C)c(Cl)c1 | -31% | -8%
CCOc1ccc(C2C(C(=O)Nc3ccc(OC)cc3)=C(C)Nc3nc(CCCO)nn32)cc1 (stereo not drawn) | -13% | 20%
Cc1ccc2[nH]c(=O)c3cc(C(=O)NC4CCC(C)CC4)sc3c2c1 (stereo not drawn) | 1% | ?
CCOc1ccc(N2CC(NC(=O)C3CCCCC3)CC2=O)cc1 (stereo not drawn) | -2% | 12%
CCOc1cccc(C2CC(=O)Nc3cc4c(cc32)OCCO4)c1 (stereo not drawn) | ? | ?
COc1ccccc1NC(=O)C1CCN(c2ncnc3c2nc2n3CCCCC2)CC1 | -22% | ?
O=C(CN1C(=O)CSc2ccc(S(=O)(=O)N3CCCC3)cc21)NCc1ccccc1Cl | -14% | -15%
Cc1ccc(-c2csc3ncnc(Nc4ccc(C(=O)O)cc4)c23)cc1 | -15% | -19%
COCCCNC(=O)CSc1nc2cc3c(cc2c(=O)n1CCCCCC(=O)NCCc1ccc(OC)c(OC)c1)OCO3 | -10% | -15%
CC1(C)CCC[C@@]2(C)[C@@H]1CC[C@@]1(C)OC(=O)C[C@H]21 | -10% | .
CCc1ccc(-n2c(SCc3nc(-c4cc(OC)ccc4OC)no3)nnc2-c2ccccc2)cc1 | ? | ?
COCCCNc1nc2c(c(=O)n(C)c(=O)n2C)n1Cc1ccccc1 | ? | ?
CCOC(=O)c1noc2ncnc(Nc3ccc(F)cc3F)c12 | -22% | -8%
Cc1cc2oc(C(=O)Nc3c(C)n(C)n(-c4ccccc4)c3=O)cc(=O)c2cc1C | -6%[11.5 µM] | -5%
Cc1ccccc1OCC(O)Cn1c(=N)n(CCN2CCCCC2)c2ccccc21 (stereo not drawn) | ? | ?
Cc1c(C(=O)Nc2cccc(F)c2)oc2c1-c1nn(Cc3c(F)cccc3Cl)cc1CC2 | -4% | -45%
CCOCCCNC(=O)C(c1ccc(OC)cc1)N(Cc1cccs1)C(=O)c1ccc(NC(C)=O)cc1 (stereo not drawn) | -1% | 11%
Cc1ccc(S(=O)(=O)N2CCCC(c3nc4c(nnn4Cc4ccc(OC(F)(F)F)cc4)c(=O)[nH]3)C2)cc1 (stereo not drawn) | -10% | -32%
COc1ccccc1NC(=O)Cn1c(=O)n(Cc2ccc3c(c2)OCO3)c(=O)c2oc3ccccc3c21 | 4% | -33%
CCC(=O)N1CCc2cc(S(=O)(=O)NCCC(=O)NCc3ccc(C)cc3)ccc21 | ? | -11%
C[C@H](NC(=O)c1sccc1OCc1ccc(Cl)cc1)c1ccccc1 | ? | .
CCc1ccc(CNC(=O)c2cc3c(=O)n(CC)c4ccccc4c3s2)cc1 | -1% | ?
CCC(CC)C(=O)Nc1ccc2nc(SCc3ccccc3)sc2c1 | -22% | -9%
COc1ccc(CCNC(=O)CN2C(=O)COc3ccccc32)cc1OC | -18% | 0%
CCCN(CCC)C(=O)CN1C(=O)CSc2ccc(S(=O)(=O)N3CCC(C)CC3)cc21 | -29% | 7%
O=C(Nc1ccccc1OCc1cc(=O)n2ccccc2n1)c1ccccc1F | 7% | -32%

Molecules listed so far with a CF3 group, in the order listed:
SMILES | HTT prom inh | PMP22 txn
Cc1cc(Nc2ncc3c(n2)N(C)C(=O)N(c2cc(NC(=O)c4cccc(C(F)(F)F)c4)ccc2C)C3)n(C)n1 | ? | .
Cn1c2ccccc2c2cnn(CC(=O)N3CCN(c4cccc(C(F)(F)F)c4)CC3)c(=O)c21 | 4% | 3%
Cc1ccc(-c2cc(C(F)(F)F)c(C#N)c(SCC(=O)Nc3ccccc3)n2)cc1 | -12% | 4%
Cc1ccc(S(=O)(=O)N2CCCC(c3nc4c(nnn4Cc4ccc(OC(F)(F)F)cc4)c(=O)[nH]3)C2)cc1 (stereo not drawn) | -10% | -32%

6 records picked at random from the list so far, as already listed:
SMILES | HTT prom inh | PMP22 txn
CCC(=O)N1c2ccc(S(=O)(=O)CCC(=O)N3CCN(c4ccc(F)cc4)CC3)cc2CC1C (stereo not drawn) | -32% | ?
COCCCNc1nc2c(c(=O)n(Cc3ccc(F)cc3)c(=O)n2C)n1C | -9% | -8%
Cc1csc2nc(COC(=O)c3ccccc3NC(=O)COc3ccccc3F)cc(=O)n12 | ? | -18%
COc1ccc(N2CCN(C(=O)c3cc4c(=O)n(Cc5cccnc5)ccc4nc3C)CC2)cc1 | -16% | -7%
COc1ccc(Nc2oc(-c3ccc(COc4ccccc4C)o3)nc2C#N)cc1 | ? | -50%
CC1=C(CC(=O)O)c2cc(F)ccc2/C1=C\c1ccc(S(C)(=O)=O)cc1 | -1% | .
